# Source: PubChem
# gsp antagonist – qHTS for Antagonists of gsp, the Etiologic Mutation Responsible for Fibrous Dysplasia/McCune-Albright Syndrome: qHTS; gsp-mutant cells, cAMP HTRF, 30 min; control for the full effect not named in the record; Potency, µM (top dose mostly 76.9 µM), without a hit: at the highest dose activity change, negative = inhibition, actives largely listed as inhibitors; actives 0.4% (n = 340,000); AID 624288, 2012; active = falling curve of any shape with a large fitted effect; inconclusive = falling curve, mostly with a smaller effect; inactive = flat or rising curve; cell line not stated here;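 note: intracellular cAMP measured with PDE inhibitor Ro 20-1724 present during compound exposure; potency is the fitted concentration of half-maximal effect; % is set by controls: 0 for no effect and ±100 for the full control effect; nearly all actives have a fitted effect of over 65% in size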
#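 Cells in G418 medium, seeded 16-24 h, 37C; buffer exchange to DPBS + 1 mM CaCl2, 0.5 mM MgCl2, 0.05% BSA; cpds in DMSO + […] (300 uM stock), 30 min 37C; HTRF cAMP detection.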
# Menin MLL FP FL – qHTS Assay for Inhibitors Targeting the Menin-MLL Interaction in MLL Related Leukemias: Competition With Fluorescein Labeled MLL-derived Peptide; Fluorescence polarization, fluorescein-MLL peptide displacement from menin; FP activity change, % at 61.4 µM; 290,000 tested, under 10 active; inconclusive = falling polarisation curve, or a change in total fluorescence; inactive = total fluorescence flat and polarisation flat or rising; no compound was filed as active; the % refers to the polarisation; negative = inhibition;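 note: % of control where 0% means no effect; inhibitors lower the polarisation; unlabelled MLL peptide was the positive control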
# ClpP mod – qHTS Assay for Activators of ClpP | ATP-dependent Clp protease proteolytic subunit (Bacillus subtilis (strain 168)), P80244 | purified B. subtilis ClpP, FRET peptide cleavage, 20 min | Potency, µM (series often up to 57.5 µM), for inactives: at the top dose activity change, negative = active | actives 1.9% (n = 340,000) | AID 651965, 2013; active = well fitted falling curve with a large enough effect; inconclusive = small, poorly fitted or top-dose-only effect; inactive = no such curve, though single readings can be large or run the other way; note: potency is the fitted concentration of half-maximal effect; the source files actives as falling curves though it sought activators and does not explain the sign; nearly all actives have a fitted effect of over 65% in size; many hits overshoot -100%
# Target sequence (P80244 whole entry, looked up): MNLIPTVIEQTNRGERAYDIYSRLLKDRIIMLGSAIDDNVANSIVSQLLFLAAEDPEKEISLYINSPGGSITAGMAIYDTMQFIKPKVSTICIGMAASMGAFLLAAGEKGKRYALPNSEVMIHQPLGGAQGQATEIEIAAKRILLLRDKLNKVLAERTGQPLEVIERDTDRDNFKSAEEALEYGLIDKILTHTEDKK
#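 FRET quenching reversal measured ClpP activation: 10 microg/mL B. subtilis ClpP at pH 8 with the FRET-FV decapeptide, read at 430 nm after 320 nm excitation. The 20-min minus 0-min signal was scaled between DMSO/no-enzyme wells and ADEP (5.8 microM final).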
# Sfp inh – qHTS Assay for Inhibitors of Bacillus subtilis Sfp phosphopantetheinyl transferase (PPTase); 4'-phosphopantetheinyl transferase ffp (Bacillus subtilis), Q9F4F7; Biochemical Sfp PPTase activity, qHTS; Potency, µM, inactives show max response, negative = inhibition, usual class: inhibitors; actives 3.5% (n = 310,000); AID 1490, 2009; active = well fitted inhibition curve with a large enough effect; inconclusive = small, poorly fitted or top-dose-only effect, or another doubt; inactive = no such curve, though single readings can be large or run the other way;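 note: the enzyme is Sfp with the accession as filed and its product quenches rhodamine fluorescence; potency is the fitted concentration of half-maximal effect; 0% = enzyme reaction without inhibitor and -100% = no enzyme wells; top concentration of the series not given in the record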
#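 Sfp 15 nM + cpd, 15 min RT; start w/ rhodamine-CoA 5 uM, BHQ-2-YbbR 12.5 uM (final); 50 mM Hepes pH 7.6, 10 mM MgCl2, 0.01% NP-40, 0.01% BSA; read 525/598 nm at 0 and 30 min.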
# gsp ag – qHTS for Agonist of gsp, the Etiologic Mutation Responsible for Fibrous Dysplasia/McCune-Albright Syndrome: qHTS. gsp mutant cells, cAMP HTRF, 30 min; control for the full effect not named in the record. Potency, µM (highest dose often 76.9 µM), for inactives: at the top dose activation (cAMP increase), hits mostly activators. actives 0.13% (n = 340,000); active = well fitted activation curve with a large enough effect; inconclusive = small, poorly fitted or top-dose-only effect, or another doubt; inactive = no such curve, though single readings can be large or run the other way; cell line not stated here;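 note: phosphodiesterase inhibitor Ro 20-1724 added with compounds to block cAMP breakdown; potency is the fitted concentration of half-maximal effect; nearly all actives have a fitted effect of over 60% in size; about a fifth of the inactives were tested at one dose only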
#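 Cells in DMEM/10% FBS with G418 were pretreated with compounds in DMSO plus […] (300 uM stock) for 30 min at 37C. cAMP was measured by HTRF (cAMP-d2 plus anti-cAMP antibody-K) after 30 min at room temperature.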
# CtBP-E1A blk – qHTS Assay for Inhibitors of the CtBP/E1A Interaction; activity change, % (concentration not given with the values); AlphaScreen GST-E1A/His-CtBP binding, 1536-well; active compounds read low; control for the full effect not named in the record; AID 651724, 2012; actives 0.49% (n = 340,000); in the data active means activity change below about -65%; inconclusive means about -30% to -65%; inactive means above about -30%; note: % is set by controls: 0 for no effect and ±100 for the full control effect
#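 AlphaScreen with 125 nM GST-E1A and 125 nM His-CtBP (5X stocks) in Tris pH 8.0, 300 mM NaCl, BSA, Tween 20, TCEP. Compounds preincubated 2 h at 37 deg C, then glutathione donor/nickel acceptor beads added for 1 h at 37 deg C in dark.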
# TRPV1 potentiator – HTS Assay for Compounds that Act as Potentiators of the Vanilloid Receptor 1; potentiation, % at 8.33 µM; Transient receptor potential cation channel subfamily V member 1 (Homo sapiens), Q8NER1; TRPV1-expressing cells, Fluo-8 calcium influx, capsaicin EC20 potentiation; host cell line not named in the record; control for the full effect not named in the record; actives 0.02% (n = 320,000); active means potentiation above 80%; inconclusive means 30% to 80%; inactive means below 30%; note: 0% is about no effect
# Target sequence (Q8NER1 whole entry, looked up): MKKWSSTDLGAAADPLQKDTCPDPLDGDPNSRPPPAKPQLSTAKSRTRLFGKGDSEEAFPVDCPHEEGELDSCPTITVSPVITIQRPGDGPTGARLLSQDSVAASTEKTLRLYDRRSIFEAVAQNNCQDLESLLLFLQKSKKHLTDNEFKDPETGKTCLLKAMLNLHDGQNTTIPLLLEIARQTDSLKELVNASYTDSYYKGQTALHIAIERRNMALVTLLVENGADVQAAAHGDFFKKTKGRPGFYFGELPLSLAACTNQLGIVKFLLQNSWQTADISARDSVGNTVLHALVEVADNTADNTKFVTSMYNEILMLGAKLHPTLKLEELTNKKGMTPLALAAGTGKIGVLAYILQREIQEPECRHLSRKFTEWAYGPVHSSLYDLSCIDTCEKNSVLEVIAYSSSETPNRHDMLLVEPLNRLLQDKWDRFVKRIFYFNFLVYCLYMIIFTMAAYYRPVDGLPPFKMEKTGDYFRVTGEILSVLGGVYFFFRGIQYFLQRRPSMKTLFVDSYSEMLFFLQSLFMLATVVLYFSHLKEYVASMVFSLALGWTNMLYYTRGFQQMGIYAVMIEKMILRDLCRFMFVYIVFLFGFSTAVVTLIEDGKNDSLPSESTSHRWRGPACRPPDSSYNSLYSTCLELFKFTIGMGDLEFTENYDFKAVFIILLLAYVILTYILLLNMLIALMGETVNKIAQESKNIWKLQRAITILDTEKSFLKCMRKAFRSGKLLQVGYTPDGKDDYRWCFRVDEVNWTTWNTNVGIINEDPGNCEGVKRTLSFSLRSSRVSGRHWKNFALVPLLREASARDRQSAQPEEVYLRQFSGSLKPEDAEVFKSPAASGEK
#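 Cells expressing TRPV1 were dye-loaded with Fluo-8 and read kinetically: 10 s baseline, 3 min after compound (agonist portion), then 2 min after EC20 capsaicin (allosteric enhancer portion). Calcium-bound dye fluorescence at 480/520 nm.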
# Numbers without * were called inactive; ? = inconclusive; nt = no result given; [ ] = another dose, or the depositor's remark.
# Below each compound – gsp antagonist, Menin MLL FP FL, ClpP mod, Sfp inh, gsp ag, CtBP-E1A blk, TRPV1 potentiator
- Cc1cc(C)c(S(=O)(=O)N2CCN(C(=O)C(C)Cn3cncn3)CC2)c(C)c1 (configuration not stated)
    7%, 6.2, nt, 6%, -8%[15.4 µM], -10, -4
- CC(O)CO (configuration not stated)
    4%, -6.1, -4.7%, 11%, nt, -19, 3
- COc1ccc(C(CC(=O)O)N2C(=O)CCC2=O)cc1 (configuration not stated)
    11%, 4.9, nt, 15%, 2%, 7, -3
- Cc1cccc2sc(NC(=O)C3CSC4(C)CCC(=O)N34)nc12 (configuration not stated)
    -8%, nt, -2.1%, -4%, -26%, 2, -3
- Cc1cc(NC(=O)c2ccc(S(=O)(=O)N3CCOCC3)cc2)no1
    nt, 0.6, nt, 14%, -5%[15.4 µM], 9, -10
- COc1cc(-c2cc(N)n(S(=O)(=O)c3ccccc3)n2)cc(OC)c1OC
    4%, 2.5, 0.8%, 0%, -25%, -20, 17
- CC(Oc1cccc2ccccc12)C(=O)N/N=C/c1cccnc1 (configuration not stated)
    -46%, -1.3, 1.5%, 6%, 38%, 6, 11
- Cc1cccc(C(O)(C(=O)NNc2ccc3ccccc3n2)c2cccc(C)c2)c1
    -3%, 7.4, -9.7%, 21%, 6%, 5, 6
- CCOc1cc2[nH]c(=O)n(CCCN3CCCC3=O)c(=O)c2cc1OCC
    5%, 1.4, 11µM*, 12%, 7%, 0, -10
- COc1cc2[nH]c(=S)nc(NC3CCCCCC3)c2cc1OC
    -9%, -0.7, nt, 7%, 12%[15.4 µM], -67*, -3
- O=C(Cn1ncc2c(=O)oc3ccccc3c21)N1CCCc2ccccc21
    -18%, -2.1, -1.7%, 2%, -11%, -3, 21
- Cc1cc(C)c(S(=O)(=O)N2CCOCC2)cc1C
    nt, 2.2, nt, 20%, 12%[15.4 µM], -3, 2
- Cn1c(N)c(C(=O)COC(=O)c2ccccc2NCc2ccco2)c(=O)n(C)c1=O
    -1%, 1.4, nt, 16%, -33%[inhibitor], 7, -9
- CC(C)C(C(=O)Nc1ccc2c(c1)OCCO2)N1C(=O)c2ccccc2C1=O (configuration not stated)
    0%, 4.6, 0.5%, 26%, 15%, 5, 4
- CCN(CC)Cc1c(C(=O)N/N=C/c2ccc(C)o2)nnn1-c1nonc1N
    -3%, -0.5, nt, 12%, -8%[15.4 µM], -11, 3
- O=C(CN1CCN(Cc2ccc(F)cc2)C1=O)NC1CCCC1
    5%, -0.3, -2.3%, 14%, 4%, -1, -11
- CC(=O)c1c(COC(=O)c2ccc(Cl)cc2)nc2ccccc2[n+]1[O-]
    10%, 4.8, nt, 4%, -13%[15.4 µM], 2, -12
- CCC(=O)N=c1n(C)c2ccccc2n1CCOc1ccccc1
    9%, -3.1, 0.9%, 4%, -14%, -5, -5
- COc1cccc(OCC(O)CN2CCC(CN3C(=O)c4cccc5cccc(c45)C3=O)CC2)c1 (configuration not stated)
    9%, 2.2, nt, -3%, 11%, -23, 0
- CN(C)S(=O)(=O)c1ccc(NC(=S)NC(=O)c2cccs2)cc1
    -15%, -5.1, nt, 32µM*, 9%, -11, -3
- Cc1c(C(=O)Nc2nccs2)oc2ccc(F)cc12
    0%, nt, -3.0%, nt, -2%, -5, -5
- Cc1ccccc1NC(=O)N1CCCC1C(=O)NCc1ccccc1 (configuration not stated)
    8%, 2.8, 5.0%, 32%[activator], -15%, -10, 2
- N/C(=N\c1nc(CSc2nc3ccccc3s2)cc(=O)[nH]1)Nc1ccc(F)cc1
    8%, 4.0, 12%, 9%, -11%, nt, 3
- CCOc1ccc(N(C)S(=O)(=O)c2ccc(C)c(C(=O)NCCc3ccc(OC)cc3)c2)cc1
    -15%, nt, -2.0%, nt, 2%[15.4 µM], 4, 22
- CN(CCNC(=O)Cn1c(=O)sc2ccccc21)Cc1ccccc1
    5%, 2.4, -0.8%, 8%, -20%, 0, nt
- OC[C@@H]1[C@@H](c2ccc(F)cc2)C(c2cccc(Cl)c2)=NN1c1ccccc1
    0%, 8.0, 4.2%, 42%[activator], nt, 70, nt
- Cc1ccccc1NC(=O)CSc1cn[nH]n1
    6%, 1.8, nt, -1%, 29%, 6, -4
- CCOc1ccc(N(Cc2cc3ccc(C)cc3[nH]c2=O)S(C)(=O)=O)cc1
    -1%, -4.3, -28%, -6%, 24%, 3, -2
- CC(C)CN1C(=O)C(=O)N(CC(=O)c2ccc3c(c2)CCCC3)C1=O
    -6%, nt, 0.8%, nt, -18%, 18, 0
- O=C(Nc1cccc(-c2nc3cccnc3s2)c1)c1cccnc1Cl
    -8%, 3.4, -26%, 20%, 35%, -28, 15
- CCc1ccc(NC(=O)c2ccc3c(c2)C(=O)N(CCOC)C3Nc2ccc(CC)cc2)cc1 (configuration not stated)
    -1%, 0.4, -0.1%, 14%, -16%, 1, 10
- CCN1CCN(CCCNC(=O)C2CCCN(c3nnc(-n4cccc4)s3)C2)CC1 (configuration not stated)
    9%, 4.9, 0.5%, 8%, 6%, -3, -13
- Nc1ncnc2nc(-c3ccccc3)[nH]c12
    nt, nt, 4.4%, nt, 3%, -5, nt
- COCCNc1cc(NCCOC)c([N+](=O)[O-])cc1[N+](=O)[O-]
    -13%, 8.6, nt, -5%, 0%[15.4 µM], 6, -3
- COc1ccc2[nH]c(C)c(CCNC(=S)Nc3ccc(F)cc3)c2c1
    -14%, 0.3, -0.9%, 14%, -3%, nt, 20
- Cc1ccc(-n2c(SCC(=O)Nc3ccc(Cl)cc3)nc(O)cc2=O)cc1
    -5%, 8.0, -0.6%, -1%, -34%[inhibitor], 0, 9
- Cc1nc2ccccc2cc1C(=O)N/N=C/c1ccco1
    0%, 3.2, -0.8%, -6%, -6%, 10, -12
- O=c1c2ccccc2nc2c3ccccc3c(NCc3cccnc3)nn12
    3%, -0.8, -5.8%, -2%, -39%[inhibitor], -22, -15
- O=C(Nc1ccc(Cl)cc1)c1ccc(-n2cncn2)c([N+](=O)[O-])c1
    3%, 2.5, 0.6%, 1%, -19%, 4, -24
- O=C1C[C@@H]2CCN3C(=O)CCC[C@@H]([C@H]23)[C@H]1Cc1ccccc1
    6%, 0.2[94.6 µM], 0.5%, -7%, nt, 6, nt
- CC(=O)O/N=C/c1c(NCc2ccccc2)nc2c(C)cccn2c1=O
    16%, 3.0, nt, -14%, 17%[15.4 µM], 0, -8
- COC(=O)c1ccc2c(c1C(=O)OC)CN(S(=O)(=O)C(C)(C)C)[C@@H]2CCO
    3%, nt, -1.2%, nt, nt, 6, nt
- CN1CCN(CCOCCOc2ccc(Br)cc2Cl)CC1
    -3%, -2.5, -1.0%, 56µM*, -16%, -7, 22
- O=C(NCc1cccc(F)c1)C1CCC(=O)N(CCCN2CCOCC2)C1 (configuration not stated)
    5%, nt, 1.8%, 10%, -8%[15.4 µM], 15, 23
- Cc1nc(SCCC(=O)O)c2cc(-c3ccccc3)sc2n1
    -29%, nt, nt, 12%, 94%, -2, 0
- CC(Nn1cnnc1)c1cc(Cl)ccc1O (configuration not stated)
    11%, 2.0, nt, 21%, -8%[15.4 µM], -1, 1
- O=C(N/N=C\c1cccc(Cl)c1)c1ccc(Cn2cccn2)o1
    -16%, -1.1, -0.5%, 16%, -5%[15.4 µM], 7, -11
- CCOC(=O)C1=CN(CC)S(=O)(=O)NC1c1cccc(OC)c1 (configuration not stated)
    2%, nt, -0.6%, nt, nt, 5, nt
- COc1cc(/C=N/N(C)C)ccc1OC(=O)c1cccs1
    1%, 1.6, 0.8%, 7%, 6%[15.4 µM], ?, -5
- CCCC(=O)Nc1ccc(C(=O)NCc2ccccn2)cc1
    4%, -6.0, nt, 14%, -14%, 10, 2
- Cc1nc(N/N=C/c2ccc(Br)cc2)cc(N2CCOCC2)n1
    -23%, -4.4, -1.0%, 21%, -3%[15.4 µM], 2, 7
- Fc1ccc(-c2noc(C3CCN(Cc4cccnc4)CC3)n2)cc1
    1%, 0.4, 1.7%, 10%, -19%, 0, -6
- O=C(CS(=O)c1cccc(C(F)(F)F)c1)Nc1ccccc1Cl (configuration not stated)
    0%, 6.8, -0.8%, 25%, 15%, 0, -8
- CC(C(=O)Nc1ccc(F)cc1Cl)N1CCN(S(=O)(=O)c2cccs2)CC1 (configuration not stated)
    -9%, nt, -0.9%, nt, 25%, 4, -7
- COCCN=C1NN=C(c2cc(C)n(CC3CCCO3)c2C)CS1 (configuration not stated)
    8%, -1.3, nt, -29%, -35%[15.4 µM], -6, 0
- COc1ccc(CC(=O)NNC(=O)COc2ccc(Cl)cc2C)cc1S(=O)(=O)N1CCOCC1
    -5%, nt, -2.2%, nt, -55%[inhibitor], -4, 13
- S=C(NCc1ccc(Cl)cc1)NN1CCOCC1
    -2%, -0.2, -22%, 20%, 6%[15.4 µM], -3, 1
- Cc1c(C2Nc3ccccc3NC3=C2C(=O)CC(C)(C)C3)cnn1C (configuration not stated)
    -17%, ?, -0.9%, -5%, 30%, -2, -2
- CCOC(=O)c1sc(NC(=S)NC(=O)c2cccc(Cl)c2)c(C(=O)OCC)c1C
    -2%, -0.8, -1.6%, -3%, -43%[inhibitor], -5, -6
- C=CCN1CCN(C(c2cc(OC)ccc2OC)c2nnnn2CC2CCCO2)CC1 (configuration not stated)
    5%, -2.2, -0.1%, 1%, -21%, 12, 7
- O=C(N/N=C/C1CC=CCC1)c1ccc(O)cc1O (configuration not stated)
    0%, 4.1, -1.8%, 0%, 1%, -6, -8
